A647 autofl: qHTS Assay for Spectroscopic Profiling in A647 Spectral Region. AID 592, 2007. max dye-equivalent concentration, M. Compound fluorescence, A647 channel (570/671 nm), Tris buffer. 59,000 tested, under 10 active; active means above 1 µM dye equivalent; inconclusive means 0.1 to 1 µM; inactive means 0.1 µM or less;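 note: values scaled relative to a standard on each plate; highest value over a series up to 38 µM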
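Tris 100 mM pH 8.0; cpd + A647 stds pin-transferred; 15 min RT; CCD imager, ex 570/em 671. Output = A647-equivalent conc. per cpd conc.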
TSHR agonist: qHTS Assay for Agonists of the Thyroid Stimulating Hormone Receptor | Thyrotropin receptor (Homo sapiens), P16473 | AID 926, 2007 | HEK293-CNG-TSHR cells (CNG channel as cAMP sensor), membrane potential dye, cAMP | Potency, µM (series often up to 57.1 µM), without a hit: at the top dose activation, hits mostly activators | 73,000 compounds, 0.48% hits; active = well fitted activation curve of enough size with the parental cells flat; inconclusive = any curve in the parental cells; inactive = parental cells flat and receptor cells flat or falling; note: potency is the fitted concentration of half-maximal effect; % of control where 0% means no effect; weak receptor curves with flat parental cells got no call and are not listed
Target sequence (P16473 whole entry, looked up): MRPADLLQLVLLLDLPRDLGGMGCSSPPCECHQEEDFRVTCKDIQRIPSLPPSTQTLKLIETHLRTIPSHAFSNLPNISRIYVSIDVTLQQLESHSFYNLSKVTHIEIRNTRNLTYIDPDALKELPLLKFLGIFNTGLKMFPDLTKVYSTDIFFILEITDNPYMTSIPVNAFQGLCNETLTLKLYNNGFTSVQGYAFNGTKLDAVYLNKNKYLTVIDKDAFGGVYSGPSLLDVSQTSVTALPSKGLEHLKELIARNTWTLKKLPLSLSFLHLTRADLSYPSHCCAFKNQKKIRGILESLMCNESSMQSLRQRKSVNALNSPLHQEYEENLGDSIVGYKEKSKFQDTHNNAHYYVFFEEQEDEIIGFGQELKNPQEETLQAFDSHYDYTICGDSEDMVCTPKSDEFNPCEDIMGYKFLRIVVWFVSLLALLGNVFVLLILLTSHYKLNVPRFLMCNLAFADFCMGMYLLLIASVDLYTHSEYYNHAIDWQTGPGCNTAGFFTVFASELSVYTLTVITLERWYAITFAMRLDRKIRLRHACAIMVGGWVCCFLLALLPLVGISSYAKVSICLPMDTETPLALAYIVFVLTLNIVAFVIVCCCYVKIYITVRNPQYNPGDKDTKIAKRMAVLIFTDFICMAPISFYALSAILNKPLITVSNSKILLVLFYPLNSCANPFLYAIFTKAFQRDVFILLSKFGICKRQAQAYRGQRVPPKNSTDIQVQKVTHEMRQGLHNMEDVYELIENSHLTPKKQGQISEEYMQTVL
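cAMP rise detected as CNG-channel membrane depolarization by fluorescent dye (emission 590 nm), 30 min after compound, following 60 min dye loading containing 100 uM RO 20-1724 at room temperature. Cells: TSHR/CNG HEK 293, with parental CNG HEK 293 as control.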
Resorufin autofl: qHTS Assay for Spectroscopic Profiling in Resorufin Spectral Region. Compound fluorescence, resorufin region 547/598 nm, buffer; hits give high values. max dye-equivalent concentration, M. 59,000 compounds, 0.04% hits. AID 588, 2007; active = above 10 nM dye equivalent; inconclusive = 1 to 10 nM; inactive = 1 nM or less; a few of its hits are not listed in these tables; note: highest value over a series up to 38 µM
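Compounds in 100 mM Tris buffer, pH 8.0, incubated 15 min at room temperature, then read with 547 nm excitation and 598 nm emission filters. Fluorescence was converted to dye-equivalent concentration using an on-plate six-point resorufin standard curve.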
A488 fluor: qHTS Assay for Spectroscopic Profiling in A488 Spectral Region; compound autofluorescence, A488 spectral region, dye equivalency; hits give high values; max dye equivalency, M; AID 591, 2007; 59,000 compounds, 0.1% hits; active = above 10 nM dye equivalent; inconclusive = 1 to 10 nM; inactive = 1 nM or less; about half of its hits are not listed in these tables;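 note: highest value over a series up to 38 µM; compound alone in buffer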
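Compounds pin-transferred into 100 mM Tris buffer, pH 8.0, incubated 15 min at room temperature, then imaged with 480 nm excitation/540 nm emission filters. Fluorescence converted to Alexa 488 dye-equivalent concentration via an on-plate six-point A488 standard curve.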
AID923: qHTS Assay for Allosteric/Competitive Inhibitors of Caspase-1: Spectroscopic Profiling in AFC Spectral Region; AID 923, 2007; 75,000 compounds, 1.1% hits; Potency, µM (titrated, usually from 57.5 µM), without a hit: at the top dose fluorescence increase, usual class: activators; compound fluorescence, AFC spectral region (405/520 nm); almost no hit is shown here; active = well fitted activation curve with a large enough effect; inconclusive = small, poorly fitted or top-dose-only effect;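 note: potency is the fitted concentration of half-maximal effect; 0% is about no effect; scaled to a free AFC standard on each plate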
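Compound autofluorescence profiled at 405 nm ex/520 nm em during kinetic caspase 1 run (50 nM enzyme, 5 uM Ac-WEHD-AFC, HEPES pH 7.5, 10 mM DTT). Titration up to 57 uM; baseline from regression intercept, normalized to AFC standard curve.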
Active calls of the source: *; i = inactive; ? = inconclusive; . = no result given; [ ] = remark or other dose. Some of the compounds tested. The share of hits here may be higher or lower than overall.

Every second line gives: A647 autofl	TSHR agonist	Resorufin autofl	A488 fluor	AID923
- O=C1CC(c2cccc(Oc3ccccc3)c2)NC(=O)N1 (configuration not stated)
    2e-08	1%	i	i	0.1%
- COc1ccc(NC(=O)CSc2nnc(-c3ccc(C)cc3)n2N)cc1
    1.1e-09	-3%	i	i	0.7%
- C=CCn1c(SCc2nc3ccccc3nc2C)nnc1-c1ccoc1C
    2.3e-09	.	i	i	0.0%
- Cc1ccc(S(=O)(=O)N(CC(O)CN2CCOCC2)c2cc(Cl)ccc2Cl)cc1 (configuration not stated)
    1e-09	.	i	i	.
- Cc1csc(NC(=O)C2CCCO2)n1 (configuration not stated)
    2.5e-08	0%	i	i	-1.0%
- COCCN1C(=O)c2oc3cc(C)c(C)cc3c(=O)c2C1c1cccc(O)c1 (configuration not stated)
    4.8e-09	0%	i	i	2.4%
- Nc1ncnc2c1ncn2CCCCC(=O)O
    2.7e-09	-5%[11.4 µM]	i	i	-1.7%[11.5 µM]
- CS(=O)(=O)Nc1ccccc1C(=O)N1CCCC1
    3.1e-08	4%	i	i	-1.0%
- COc1ccc(Cl)cc1N1C(=O)[C@@H]2C(c3cccc(OC)c3OC)=NO[C@@H]2C1=O
    3.3e-08	22%	i	i	0.9%
- NS(=O)(=O)c1ccc(NCc2cnc3ccccc3c2)cc1
    3.2e-08	2%[11.4 µM]	i	i	5.1%[11.5 µM]

Continued.
Every second line gives: A647 autofl	TSHR agonist	Resorufin autofl	A488 fluor	AID923
- Nc1ccccc1C#Cc1ccccc1
    .	-3%	.	.	-0.8%
- O=C(NCc1nnc(SCC(=O)N2CCCCCC2)o1)c1ccco1
    2.4e-08	10%[11.4 µM]	i	i	0.0%
- CN1CCN(Cc2c(C#N)c3ccccc3n2C)CC1
    1.5e-08	13%	i	i	-0.7%
- COc1ccc(S(=O)(=O)Nc2ccccc2C(=O)OC2CCCN(C)C2)cc1OC (configuration not stated)
    2e-08	4%	i	i	0.7%
- CC(C)OCCCN1C(=O)c2[nH]nc(-c3ccccc3O)c2C1c1cccc(Cl)c1 (configuration not stated)
    4.3e-09	?	i	i	-0.8%
- Cn1c2ccccc2c2nn(-c3ccccc3)c(=O)cc21
    6.3e-09	.	i	i	.
- COc1ccc(CCN(C)CCCC(C#N)(c2cc(OC)c(OC)c(OC)c2)C(C)C)cc1OC (configuration not stated)
    1e-09	.	i	i	.
- CCn1nc(NS(=O)(=O)c2ccccc2)c2cc3cccc(C)c3nc21
    1e-09	-1%	i	i	0.6%
- Cc1nc2sc(C#N)c(N)c2c2c1CCCC2
    1e-09	.	i	i	.
- COc1ccccc1CN1CC[C@@]2(CCCN(C(=O)c3ccncc3)C2)C1
    3.9e-09	3%	i	i	1.5%

Additional structures.
Every second line gives: A647 autofl	TSHR agonist	Resorufin autofl	A488 fluor	AID923
- O=C1c2oc3ccc(Br)cc3c(=O)c2C(c2cccc(F)c2)N1CCO (configuration not stated)
    3.9e-09	21%	i	i	0.0%
- O=C(OCCCCN1C(=O)c2ccccc2C1=O)c1n[nH]c2ccccc12
    3.1e-08	6%	i	i	0.3%
- O=C(OCn1nnc2ccccc2c1=O)C1=COCCO1
    5.8e-09	0%	i	i	-3.4%
- CCOc1ccc(S(=O)(=O)Nc2ccccc2C(=O)NCc2ccco2)cc1
    1e-09	8%	i	i	-1.0%
- COc1ccc(-c2nc(CSCC(=O)N3CCc4ccccc4C3)c(C)o2)cc1OC
    .	25%	.	.	5.8%
- CCCCN(C)C(=O)c1sc2ncn(CC)c(=O)c2c1C
    1e-09	2%	i	i	0.1%
- COc1ccccc1-n1c(CNC(=O)COc2ccccc2)n[nH]c1=S
    3.8e-09	0%[11.4 µM]	i	i	-1.4%
- CC(=NCCCNC1CCCCC1)C1=C(O)CC(C)(C)CC1=O
    .	13%	.	.	0.5%
- CS(=O)(=O)N(CC(=O)Nc1cccnc1)c1ccc2c(c1)OCO2
    1.1e-09	-9%	i	i	0.3%
- CCCN1CCN(C(=O)CN2C(=O)CC(C)(C)S(=O)(=O)c3ccccc32)CC1
    1e-09	-3%[11.4 µM]	i	i	-1.7%

More compounds
Every second line gives: A647 autofl	TSHR agonist	Resorufin autofl	A488 fluor	AID923
- CCOC(=O)C1=C(c2ccccc2)Nc2ncnn2C1c1cccc(OC)c1OC (configuration not stated)
    4.1e-09	4%	i	i	-1.3%
- COc1ncc2nc(-c3cc(F)cc(F)c3)c(=O)n(CCC#N)c2n1
    1.4e-08	-18%	i	i	-0.3%
- CCc1ccc(N2CC(C(=O)NCc3ccc4c(c3)OCO4)CC2=O)cc1 (configuration not stated)
    1e-09	-14%	i	i	0.6%
- CCOC(=O)C1=C(C)OC(N)=C(C#N)C1c1cc2ccccc2nc1N1CCCCC1 (configuration not stated)
    2.4e-08	.	i	i	.
- CCN(CC)S(=O)(=O)c1ccc(-c2nnc(SCC(=O)Nc3nc(C)cs3)o2)cc1
    2.3e-08	?	i	i	-0.5%
- Cc1cc(C(=O)OCC(=O)c2c(N)n(C)c(=O)n(C)c2=O)c(C)o1
    7.4e-09	4%	i	i	-0.6%
- COc1cc2c(cc1OC)-c1cc(NC3CCCCCCC3)nc(=O)n1CC2
    2.3e-08	?	i	i	3.3%
- CCc1cc2c(cc3c(=O)n(CC(=O)N4CCN(c5ccccn5)CC4)nc(CC)n32)s1
    5.6e-08	.	i	i	0.9%
- O=C(O)C1CCN1C1CCCCC1 (configuration not stated)
    2e-09	3%	i	i	0.3%
- COc1ccc(OC)c(C(=O)COC(=O)c2ccc(C)o2)c1
    3.9e-08	?	i	i	-1.0%

Results in Resorufin autofl and A488 fluor, for 5 of the compounds above:
| Structure | Resorufin autofl | A488 fluor |
| --- | --- | --- |
| CCOC(=O)C1=C(C)OC(N)=C(C#N)C1c1cc2ccccc2nc1N1CCCCC1 (configuration not stated) | i | i |
| CCN(CC)S(=O)(=O)c1ccc(-c2nnc(SCC(=O)Nc3nc(C)cs3)o2)cc1 | i | i |
| Cc1cc(C(=O)OCC(=O)c2c(N)n(C)c(=O)n(C)c2=O)c(C)o1 | i | i |
| COc1cc2c(cc1OC)-c1cc(NC3CCCCCCC3)nc(=O)n1CC2 | i | i |
| CCc1cc2c(cc3c(=O)n(CC(=O)N4CCN(c5ccccn5)CC4)nc(CC)n32)s1 | i | i |

The listing continues.
Every second line gives: A647 autofl	TSHR agonist	Resorufin autofl	A488 fluor	AID923
- Cc1ccc(-n2sc3ccccc3c2=O)cc1S(=O)(=O)N1CCCCC1
    3.5e-08	-3%	i	i	0.4%
- CCOC(=O)c1c(NC(=O)CSc2nnnn2C)sc(C)c1C
    2.9e-08	?	i	i	-2.9%
- COc1ccccc1N1CCN(CC(=O)c2ccc3ccn(C(C)=O)c3c2)CC1
    .	-5%	.	.	2.6%
- CCCCCOc1ccc(NC(=O)CCCC(=O)O)cc1
    .	10%	.	.	-0.4%
- O=c1cc(O)c2c(=O)n(-c3ccccc3)c3ccccc3c2o1
    .	?	.	.	1.5%
- CC(=O)c1nc(N2C(=O)C3CC=C(C)CC3C2=O)sc1C (configuration not stated)
    1e-09	2%	i	i	5.9%
- Cc1noc(C)c1C(=O)N1CCC(Cc2ccccc2)CC1
    .	4%	.	.	-0.4%
- Cc1nc(N2CCN(c3ccccc3)CC2)nc2c1C(=O)CC(c1ccccc1)C2 (configuration not stated)
    1.1e-09	?	i	i	-2.3%
- CC(=O)Nc1ccc(S(=O)(=O)NCCSCc2ccco2)cc1
    .	4%	.	.	1.8%
- Cn1c(=O)c2c(nc(CN3CCN(CCO)CC3)n2CCc2ccccc2)n(C)c1=O
    .	-9%	.	.	-2.5%

Additional compounds.
Every second line gives: A647 autofl	TSHR agonist	Resorufin autofl	A488 fluor	AID923
- O=C(CCN1C(=O)c2ccccc2C1=O)Nc1ccncc1
    .	-1%	.	.	0.7%
- Cc1nonc1NC(=O)CSc1nnc(-c2ccoc2C)n1C
    2.2e-08	3%	i	i	-0.4%
- O=C(COC(=O)c1ccc(S(=O)(=O)N2CCOCC2)cc1)Nc1nc(-c2ccccc2)cs1
    1.6e-08	2%	i	i	-0.2%
- COc1ccc(N=C2SC(C(=O)O)CC(=O)N2Cc2ccc(OC)c(OC)c2)cc1 (configuration not stated)
    8.6e-09	54%	i	i	-3.1%
- CC(=O)N1CCC2(CCCN(c3ccccn3)C2)CC1
    1.7e-08	18%	i	i	2.3%
- Cc1ccc(C2C3=C(CC(C)(C)CC3=O)Nc3n[nH]c(C)c32)cc1 (configuration not stated)
    3.8e-09	0%	i	i	-3.1%
- OC(Cc1nc2ccccc2[nH]1)c1ccccc1Cl (configuration not stated)
    1e-09	4%	i	i	1.1%
- Cc1ccc(-c2nn3c(C)nnc3s2)cc1N
    2.2e-09	.	i	i	2.1%
- O=C(O)CCCCCN1C(=O)CCC1=O
    1e-09	.	i	i	.
- O=C(CCCn1c(=S)[nH]c2cc3c(cc2c1=O)OCO3)NC1CC1
    4.2e-09	-2%	i	i	-0.6%

Next entries follow.
Every second line gives: A647 autofl	TSHR agonist	Resorufin autofl	A488 fluor	AID923
- CCN(CC)CCN1C(=O)c2oc3ccccc3c(=O)c2C1c1ccccc1 (configuration not stated)
    4.6e-09	3%	i	i	2.6%
- Cc1nc(NC(=O)C2CC3CCCC(C2)C3=O)sc1C (configuration not stated)
    1.8e-09	0%	i	i	1.2%
- COc1ccc(NC2=C(C)C(=O)CC2)cc1
    .	?	.	.	1.3%
- CC(=O)Nc1cccc(NC(=O)C2CC3CCC2C3)c1 (configuration not stated)
    .	3%	.	.	-0.8%
- O=C(NCCN1CCOCC1)c1c(F)c(F)c(F)c(F)c1F
    1.8e-08	-2%	i	i	-1.9%
- CCc1ccc2nc(NC3=NCN(CCCN4CCOCC4)CN3)nc(C)c2c1
    1e-09	-3%	i	i	0.6%
- CCCC(=O)Nc1ccccc1NC(=O)CCC
    4.1e-08	7%	i	i	-0.6%
- O=C(OCC#CCSc1nnc(-c2ccncc2)o1)c1cccs1
    3e-08	4%	i	i	-1.1%
- O=C(c1cc(C(F)(F)F)cc(C(F)(F)F)c1)N1CCC2(CCN(Cc3ccccc3)CC2)CC1
    8.4e-09	15%	i	i	1.8%
- Cc1sc2ccccc2[n+]1CCC(=O)O
    5.2e-08	?	i	i	1.7%[11.5 µM]

(list continues)
Every second line gives: A647 autofl	TSHR agonist	Resorufin autofl	A488 fluor	AID923
- Cc1cc(NC(=O)CC(CN(C)S(=O)(=O)c2ccccc2)c2ccccc2)no1 (configuration not stated)
    .	?	.	.	-1.0%
- CCOc1cc(C2/C(=C(/O)c3ccc(OC(C)C)cc3)C(=O)C(=O)N2CCCOC)ccc1O (configuration not stated)
    2.4e-08	5%	i	i	-3.0%
- Cc1c(Cl)cccc1NC(=O)CN1CCN(CCO)CC1
    2.6e-08	-2%	i	i	-1.9%
- CCSc1nnc(N)s1
    .	2%	.	.	0.3%
- O=C(c1ccco1)N1CCN(C(=O)C2CCN(S(=O)(=O)Cc3ccccc3)CC2)CC1
    5.6e-09	2%	i	i	-2.1%
- c1ccc2c(c1)nc(Nc1ccc3c(c1)OCO3)c1nnnn12
    2.3e-08	6%	i	i	7.7%
- CCOC(=O)CN1CC23C=CC(O2)C(C(=O)NCCc2ccccc2)C3C1=O (configuration not stated)
    .	12%	.	.	1.4%
- COc1ccc(OCc2nnc(SC3CCOC3=O)n2-c2ccccc2)cc1 (configuration not stated)
    9.4e-09	1%	i	i	1.8%
- C=CCN(CC(=O)NCc1ccccc1)C(=O)c1csnn1
    1e-09	-5%	i	i	0.4%
- COc1ccccc1-n1cnc2cc(C(=O)NCC3CCCO3)ccc21 (configuration not stated)
    2.8e-08	4%[11.4 µM]	i	i	0.3%
- CC(C)OC(=O)c1c(F)c(F)c(N2CCOCC2)c(F)c1F
    .	5%	.	.	0.5%

Source: PubChem (National Center for Advancing Translational Sciences (NCATS))
